Polio RdRp inh: inhibitors of poliovirus RNA polymerase binding and polymerization | 0.66% of 150,000 active | P03300 | % elongation, % (compound at 16.7 µg/mL) | poliovirus polymerase elongation, fluorescence polarization; stronger effect = lower value | AID 588519; in the data active = % elongation below about 90%; also: some results filed as inactive read as strong as hits
Target sequence (P03300 1749-2209 limits assumed): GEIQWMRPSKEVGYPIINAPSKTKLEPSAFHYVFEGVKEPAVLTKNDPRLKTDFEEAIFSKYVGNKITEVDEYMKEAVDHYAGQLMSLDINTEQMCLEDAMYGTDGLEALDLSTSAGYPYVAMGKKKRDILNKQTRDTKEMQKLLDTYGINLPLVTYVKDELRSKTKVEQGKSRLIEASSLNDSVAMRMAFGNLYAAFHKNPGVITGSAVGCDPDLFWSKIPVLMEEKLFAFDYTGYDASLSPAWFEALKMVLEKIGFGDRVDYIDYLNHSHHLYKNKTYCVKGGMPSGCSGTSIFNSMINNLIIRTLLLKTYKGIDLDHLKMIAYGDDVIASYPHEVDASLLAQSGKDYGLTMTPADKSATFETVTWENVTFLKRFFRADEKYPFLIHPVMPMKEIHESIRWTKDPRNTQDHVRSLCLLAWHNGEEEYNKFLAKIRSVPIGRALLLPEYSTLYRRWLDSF
Polio RdRp inh intensity: also measured in Polio RdRp inh; calls as there; % elongation; measured here: total intensity read-out; formula for this scale not given here;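 total fluorescence in place of polarization; lower means less elongation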
* marks the source's active call; other numbers are inactive results. An excerpt (hit frequency here may not be typical).

1: CC(C)Cn1c(=O)c2ccccc2n2c(CCC(=O)Nc3cccc(Cl)c3)nnc12
2: CC1CCN(C(=O)Cn2cc(SCc3ccccc3)c3ccccc32)CC1
3: CN(Cc1ccco1)S(=O)(=O)c1nnc(NC(=O)c2ccccc2Cl)s1
4: O=C(Nc1cnc(N2CCC(N3CCCCC3)CC2)c(C(=O)O)c1)c1ccc(Br)cc1
5: Cc1csc2nc(-c3cccc(NC(=O)C(C)C)c3)cn12
6: COc1ccccc1CNC(=O)Cn1ncc2c(=O)oc3ccc(C)cc3c21
7: COc1ccccc1NC(=O)C1=C(C)Nc2c(C(=O)Nc3ccc(C)cc3)cnn2C1c1cccc(OC)c1OC (stereo unspecified)
8: O=C(Nc1ccc2nc(SCC(=O)N3CCc4ccccc43)sc2c1)c1ccc(Cl)cc1
Assay by compound	1	2	3	4	5	6	7	8
Polio RdRp inh	110.0	114.0	106.0	102.0	108.0	107.0	104.0	108.0
Polio RdRp inh intensity	110.0	116.0	93.0	107.0	111.0	109.0	106.0	112.0

9: CC1CCN(C(=O)Cn2cc(SCC(=O)Nc3ccccc3)c3ccccc32)CC1
10: CCc1ccc(CNCc2c(C(=O)O)c(C)n(Cc3c(F)cccc3Cl)c2C)cc1
11: CCc1ccc(NC(=O)CSC2=Nc3ccccc3C3=NC(CCC(=O)NCc4ccco4)C(=O)N23)cc1 (stereo unspecified)
12: CSc1ccc(C(=O)Nc2ccc(-c3nc4ccccc4s3)c(O)c2)cc1
13: Cc1ccc2oc(-c3ccc(C)c(NC(=O)/C=C/c4ccco4)c3)nc2c1
14: O=C(NCCc1ccccc1Cl)c1cc2ccccn2n1
15: COc1cc(OC)c(NC(=O)c2sc3nc4n(c(=O)c3c2C)CCCC4)cc1Cl
16: Cc1cc(NC(=O)N2CCC(CN3CCOCC3)CC2)ccc1Br
Assay by compound	9	10	11	12	13	14	15	16
Polio RdRp inh	118.0	101.0	102.0	109.0	108.0	104.0	107.0	107.0
Polio RdRp inh intensity	113.0	104.0	101.0	107.0	109.0	107.0	113.0	98.0

17: CCOC(=O)c1sc2ccccc2c1S(=O)(=O)NCc1ccc(F)cc1
18: O=C(CSc1nccn1C1CCCC1)Nc1ccccc1
19: Fc1ccc(-c2cc(C(F)(F)F)nc(NCc3ccccc3)n2)cc1
20: Cc1ccc(Cn2c(C)c(CNCCCc3ccccc3)c(C(=O)O)c2C)cc1
21: CC(C)Sc1ncc(Cl)c(C(=O)Nc2ccc(S(=O)(=O)N3CCCCC3C)cc2)n1 (stereo unspecified)
22: CCOC(=O)c1c(C)[nH]c(C)c1S(=O)(=O)NCC(=O)Nc1ccc(C)c(N(C)C)c1
23: CCOC(=O)c1oc2ccc(S(=O)(=O)n3nc(-c4ccc(Br)cc4)cc3N)cc2c1C
24: COc1cc(CNc2ccc3[nH]c(=O)[nH]c3c2)cc(Cl)c1OCc1ccc(F)cc1
Assay by compound	17	18	19	20	21	22	23	24
Polio RdRp inh	105.0	103.0	108.0	106.0	109.0	109.0	107.0	104.0
Polio RdRp inh intensity	109.0	106.0	109.0	107.0	97.0	113.0	110.0	104.0

Exported with each value named: entries from further up.
#19 Fc1ccc(-c2cc(C(F)(F)F)nc(NCc3ccccc3)n2)cc1
  Polio RdRp inh: 108.0
  Polio RdRp inh intensity: 109.0
#20 Cc1ccc(Cn2c(C)c(CNCCCc3ccccc3)c(C(=O)O)c2C)cc1
  Polio RdRp inh: 106.0
  Polio RdRp inh intensity: 107.0
#21 CC(C)Sc1ncc(Cl)c(C(=O)Nc2ccc(S(=O)(=O)N3CCCCC3C)cc2)n1 (stereo unspecified)
  Polio RdRp inh: 109.0
  Polio RdRp inh intensity: 97.0
#22 CCOC(=O)c1c(C)[nH]c(C)c1S(=O)(=O)NCC(=O)Nc1ccc(C)c(N(C)C)c1
  Polio RdRp inh: 109.0
  Polio RdRp inh intensity: 113.0

The listing continues.
25: CCOc1ccc(CCNC(=O)CCc2c(C)nc3cc(-c4ccccc4OC)nn3c2C)cc1
26: CCOC(=O)CCNC(=O)N1CCN(S(=O)(=O)c2ccc3c(ccn3C)c2)CC1
27: Cc1cc(C)c(NS(=O)(=O)c2ccc(-c3cnc(C4CC4)o3)cc2)c(C)c1
28: Cc1ccc(Cl)cc1NC(=O)CCc1c(C)nc2c3cccnc3nn2c1C
29: Cc1cc(=O)n(CC(=O)NC(C)c2ccccc2)c2c1c(C)nn2C (stereo unspecified)
30: O=C(NCCCCc1ccccc1)c1nn(-c2ccccc2)nc1CO
31: CCOC(=O)C1CCN(C(=O)c2ccccc2NC(=O)c2nsc3ccccc23)CC1
32: CCN(Cc1ccccc1)C(=O)CCS(=O)(=O)c1cc2c(cc1Cl)NC(=O)CO2
Assay by compound	25	26	27	28	29	30	31	32
Polio RdRp inh	112.0	112.0	101.0	104.0	100.0	105.0	103.0	104.0
Polio RdRp inh intensity	109.0	102.0	105.0	103.0	102.0	111.0	100.0	102.0

33: Fc1cccc(NCc2ccccc2-c2nnc(-c3ccccc3Cl)o2)c1
34: Cc1ccc(CNC(=O)CN(C)S(=O)(=O)c2ccc3c(c2)c(=O)n(C)c(=O)n3C)cc1
35: CNS(=O)(=O)c1cn(CC(=O)N2CCN(c3ccc(C(C)=O)cc3)CC2)cc1S(=O)(=O)NC
36: CSc1ccc(CCNC(=O)CCc2c(C)nc3c(c(C)nn3-c3ccc(C)c(C)c3)c2C)cc1
37: COc1ccc(CCNC(=O)c2c(C)oc3ncn(C)c(=O)c23)c(OC)c1
38: CSc1ccc(CCNC(=O)c2ccc3c(c2)nc2n3CCCCC2)cc1
39: O=C1CCCc2cc(S(=O)(=O)NCC3CCC(C(=O)NCc4ccccc4Cl)CC3)ccc2N1 (stereo unspecified)
40: Cc1cccc(C)c1-n1ncc(C(=O)NCCN2CCN(C)CC2)c1C1CCN(C(=O)OC(C)(C)C)CC1
Assay by compound	33	34	35	36	37	38	39	40
Polio RdRp inh	107.0	100.0	100.0	107.0	112.0	115.0	104.0	113.0
Polio RdRp inh intensity	107.0	99.0	107.0	111.0	113.0	114.0	109.0	96.0

41: O=C(CC1N=C2c3ccccc3N=C(SCc3ccccc3Cl)N2C1=O)NCc1cccs1 (stereo unspecified)
42: O=C(Nc1nc(-c2ccc(Br)cc2)ns1)c1ccc(F)cc1
43: CCOC(=O)c1ccc(Nc2nc3ccccc3nc2NS(=O)(=O)c2ccc(Cl)cc2)cc1
44: CCc1ccccc1NC(=O)C(C)n1c(=O)cc(C)c2c(C)nn(-c3ccccc3)c21 (stereo unspecified)
45: Cc1cc(Nc2cccc(C(F)(F)F)c2)nc2ccc(NC(=O)c3cccc(Cl)c3)cc12
46: CCOC(=O)c1ccc(-n2c(CCC(=O)O)ccc2-c2ccc(Br)cc2)cc1
47: CCOc1ccc(CCNC(=O)CCCn2nc(C)c3sc4ccccc4c3c2=O)cc1OCC
48: Cn1nc(C(=O)N2CCN(c3ccccc3)CC2)c2c1-c1ccccc1SC2
Assay by compound	41	42	43	44	45	46	47	48
Polio RdRp inh	106.0	101.0	104.0	100.0	101.0	109.0	109.0	115.0
Polio RdRp inh intensity	106.0	99.0	113.0	106.0	98.0	109.0	101.0	117.0

49: COc1cc(C2CC(=O)Nc3cc4c(cc32)OCO4)cc(OC)c1O (stereo unspecified)
50: COc1cccc(CNC(=O)c2c3c(nc4ccccc24)C(=O)N(C2CCCCC2)C3)c1
51: Clc1ccc(-c2noc3ncnc(NCCCN4CCN(c5ccccc5)CC4)c23)cc1
52: COc1ccc(C)cc1NC(=O)Cn1c(=O)n(Cc2nc(C)no2)c(=O)c2ccccc21
53: Cc1ccccc1CSCCNC(=O)CN(c1ccccc1)S(=O)(=O)N(C)C
54: Cn1ncc2c(NCc3ccccc3Cl)nc(NCCO)nc21
55: Cc1ccc(NC(=O)c2ccc3snnc3c2)cc1C
56: COCCn1c(CNC(=O)c2cc([N+](=O)[O-])ccc2Cl)nc2cccnc21
Assay by compound	49	50	51	52	53	54	55	56
Polio RdRp inh	105.0	114.0	106.0	115.0	102.0	107.0	103.0	109.0
Polio RdRp inh intensity	108.0	118.0	113.0	112.0	103.0	104.0	109.0	115.0

57: O=C(CSc1nc2c([nH]c3ccccc32)c(=O)n1-c1ccccc1)N1CCCCC1
58: CC1Cc2cc(S(=O)(=O)N(C)c3ccc(Br)cc3)ccc2N1C(=O)C1CC1 (stereo unspecified)
59: Cc1cccc(NC(=O)CSc2nc(-c3ccccc3)cn2-c2ccccc2)c1C
60: COc1ccc(-c2nc(Cn3c(SCc4cccc(Cl)c4)nc4ccncc43)c(C)o2)cc1
61: Cc1[nH]c2ccccc2c1C1(O)C(=O)N(Cc2ccccc2Cl)c2ccccc21 (stereo unspecified)
62: CCS(=O)(=O)N1CCC2(CC1)OC(=O)C(C)=C2C(=O)NCc1ccccc1C
63: CCCCN1CCc2nc(Nc3ccc(OC)cc3OC)ncc2C1
64: Cc1ccc(CNC(=O)CCc2c(C)c3ccc(O)c(C)c3oc2=O)cc1
Assay by compound	57	58	59	60	61	62	63	64
Polio RdRp inh	105.0	111.0	111.0	109.0	106.0	109.0	101.0	111.0
Polio RdRp inh intensity	105.0	96.0	115.0	101.0	105.0	110.0	101.0	115.0

Compounds above containing a CF3 group:
19: Fc1ccc(-c2cc(C(F)(F)F)nc(NCc3ccccc3)n2)cc1
45: Cc1cc(Nc2cccc(C(F)(F)F)c2)nc2ccc(NC(=O)c3cccc(Cl)c3)cc12
Assay by compound	19	45
Polio RdRp inh	108.0	101.0
Polio RdRp inh intensity	109.0	98.0

Next records follow.
65: COc1cccc(C(=O)Nc2nnc(S(=O)(=O)N3CCOCC3)s2)c1
66: CC(C)C(=O)N1c2nc(C(C)C)nn2C2(CCCCC2)[C@@H]2CCCC[C@@H]21
67: CCOc1ccc(NC(=O)c2cnn3c2NC(c2ccccc2)=CC3c2cccc(OC)c2OC)cc1 (stereo unspecified)
68: COc1ccc(NC(=O)c2cc3c(=O)n(Cc4ccco4)ccc3nc2C)cc1
69: Cc1c(NC(=O)c2ccc(Cl)cc2)cc(C(C)C)c(O)c1S(=O)(=O)c1ccc(Cl)cc1
70: COc1cc(Cl)c(C)cc1Nc1nc2ccccc2c2nnc(C)n12
71: COc1ccc(C(=O)CN2CCN(S(=O)(=O)c3ccc(F)cc3)CC2)cc1
72: O=C(Nc1ccc(Cl)cc1)N1CCN(c2ccc3nnc(-c4ccccc4)n3n2)CC1
Assay by compound	65	66	67	68	69	70	71	72
Polio RdRp inh	99.0	99.0	111.0	107.0	105.0	107.0	111.0	107.0
Polio RdRp inh intensity	104.0	101.0	115.0	114.0	109.0	96.0	107.0	105.0

73: O=C(CC1C(=O)N(c2ccc(F)cc2)C(=O)N1Cc1ccc2c(c1)OCO2)Nc1ccc(F)cc1 (stereo unspecified)
74: CCCCN(C)CCNC(=O)C1CCCN(S(=O)(=O)c2ccc3c(c2)oc(=O)n3C)C1 (stereo unspecified)
75: CCCn1c2ccccc2c2cnn(CC(=O)N(Cc3ccccc3)C(C)C)c(=O)c21
76: Cc1nn2c(=O)cc(COC(=O)c3ccc(NC(=O)c4cccc(Br)c4)cc3)nc2s1
77: COc1cccc(-c2noc(COc3ccccc3Cl)n2)c1
78: CN(C)c1ccc(CNC(=O)CCn2cccn2)cc1
79: Cc1ccc(N(CC(=O)NCC(C)c2ccccc2)S(=O)(=O)N(C)C)cc1 (stereo unspecified)
80: CC1=C(C(=O)Nc2ccc(C)cc2Cl)C2(CCCCC2)OC1=O
Assay by compound	73	74	75	76	77	78	79	80
Polio RdRp inh	108.0	110.0	103.0	105.0	122.0	105.0	105.0	107.0
Polio RdRp inh intensity	109.0	111.0	94.0	103.0	121.0	104.0	112.0	106.0

81: Cc1ccc(NC(=O)Cn2cc(S(=O)(=O)N3CCN(c4ccccc4F)CC3)c3ccccc3c2=O)cc1F
82: Cc1ccc(-c2nnc(SCc3cccc(C#N)c3)o2)cc1
83: O=C(Nc1ccc(F)c(Cl)c1)N1CCC2(CC1)Oc1ccccc1C(=O)N2Cc1ccccc1F
84: CC(=O)N1CCCc2cc(S(=O)(=O)N3CCC(C(=O)NCc4ccc(F)cc4)CC3)ccc21
85: O=C(CCCn1c(=O)[nH]c2ccccc2c1=O)N1CCN(c2ccccc2)CC1
86: Cc1c(C(=O)N2CCOCC2)oc2c1-c1nn(CC(=O)NCc3cccc(F)c3)cc1CC2
87: COc1ccccc1N(CC(=O)NCCSCc1ccccc1)S(C)(=O)=O
88: COc1ccc(CCNc2oc(COc3ccc(Cl)cc3)nc2C#N)cc1OC
89: CC1CCN(S(=O)(=O)c2ccc3c(ccn3CC(=O)NCc3ccccc3F)c2)CC1
90: Cc1cccc(C(=O)Nc2ccc3nc(SCC(=O)N4CCc5ccccc54)sc3c2)c1
91: COc1ccc(CC(=O)NC2CC(=O)N(c3ccc4c(c3)OCCO4)C2)cc1 (stereo unspecified)
Assay by compound	81	82	83	84	85	86	87	88	89	90	91
Polio RdRp inh	115.0	106.0	108.0	103.0	109.0	84.0*	104.0	99.0	110.0	110.0	106.0
Polio RdRp inh intensity	114.0	112.0	111.0	105.0	103.0	83.0*	106.0	102.0	111.0	106.0	99.0
